Source: PubChem
B2AR ag: agonists of human beta-2 adrenergic receptor inducing internalization; Am2.2-beta2AR cells, FAP receptor internalization, flow cytometry; reference of the scale not given here; 340,000 tested, 0.43% active; response, % (concentration not given with the values); AID 504454;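 active = response above a set limit, near 3 SD of response in nonfluorescent compounds, cut at about 42% in these data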;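 also: stock transfer was 100 nL into about 11 µL; a reference agonist was the positive control; negative values mostly stem from fluorescent compounds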
UCH37 DUB inh: inhibitors of human deubiquitinating enzyme UCH37; purified proteasome/UCH37, Ub-AMC cleavage fluorescence; 330,000 tested, 0.33% active; inhibition, % (no concentration beside the values); AID 588478;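 active = mean of two replicates above 20%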;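 also: 0% = compound-free wells with enzyme and 100% = wells lacking proteasome; stock transfer was 100 nL into about 20 µL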
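system = Proteasome-associated human UCH37 deubiquitinase | amount = 0.15 nM proteasome as dispensed | medium = pH 7.4 Tris-HCl (50 mM) with ovalbumin, ATP-MgCl2, DTT | incubation = 30 min preincubation with enzyme, 25 min cleavage at room temperature | detection = AMC fluorescence 355/460 nm | read-out basis = percent inhibition | controls = no-proteasome and no-compound wells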
E coli growth: inhibitors of Escherichia coli growth; OD600, 23 h; hits give low values; OD600 absorbance (concentration not given with the values); 330,000 tested, 0.21% active; AID 1053175;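 active = OD600 absorbance below the run mean of sample wells minus 3.6 SD, in any replicate, cut at about 0.56 in these data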;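 also: stock transfer was 300 nL into about 60 µL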
Vif A3G: inhibitors of Vif binding to APOBEC3G peptide, primary screen, biochemical, TR-FRET, GST-Vif 1-94, biotin-A3G peptide, dose response retest (AID 1117319). TR-FRET GST-Vif / biotin-A3G peptide binding; higher % means a stronger effect; test concentration not given here; strong numbers were not always called active. one-dose inhibition, %; IC50 in µM for titrated hits. 260,000 tested, 0.57% active;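 active = above the screen mean plus three standard deviations and confirmed in dose response; inconclusive = results disagree or hit not tested in dose response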;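 also: Vif residues 1-94 fused to GST binding biotinylated APOBEC3G peptide 110-148; 0% = full assay without inhibitor and 100% = GST in place of GST-Vif; retest series ran down from 100 µM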
Bfl-1 A1 inh: inhibitors of the anti-apoptotic protein A1, read as caspase activation; MEF A1-2A-BIM cells, Caspase-Glo 3/7 luminescence, 3 h; percent of clofoctol response, vehicle zero; caspase activation, % (test concentration not listed); 330,000 tested, 0.066% active; AID 2462;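 active = over half of replicate activation scores above 10%, or exactly half above 10 with the replicate mean above 10; inconclusive = replicate mean below 10 yet half the replicates above 10; inactive = over half of replicates below 10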;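 also: wells of about 30 µL received 50 nL stock; many hits fall short of the cut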
HNF4A DNA FP: change in binding of human HNF4 alpha to DNA. P41235. HNF4a-FITC DNA binding, fluorescence polarization, 1 h. activity change, % at 10 µM. 360,000 tested, 0.3% active. AID 1224865; in the data active = activity change above about 30%, passing the limit was not always enough;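 also: controls were the assay level and a saturating level of protein; the project sought stronger binding though the title names inhibitors; some compounds called inactive have numbers as strong as hits; positive values seem to mean higher polarization but the record does not say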
LANA-H2B inh: blocks KSHV LANA binding to histone H2A/H2B; 320,000 tested, 0.6% active; cell-free LANA-H2A/H2B peptide, fluorescence polarization; Q9QR71; inhibition, % (concentration not given with the values); in the data active = inhibition mostly above about 10%, no sharp cut-off; inactive = mostly below about 6.7%;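 also: stock transfer was 7.5 nL into about 10 µL; 0% = median of vehicle wells and 100% = median of positive control wells; one replicate is shown; the record names a cut of 25% in any replicate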
Target sequence (Q9QR71 whole entry, looked up): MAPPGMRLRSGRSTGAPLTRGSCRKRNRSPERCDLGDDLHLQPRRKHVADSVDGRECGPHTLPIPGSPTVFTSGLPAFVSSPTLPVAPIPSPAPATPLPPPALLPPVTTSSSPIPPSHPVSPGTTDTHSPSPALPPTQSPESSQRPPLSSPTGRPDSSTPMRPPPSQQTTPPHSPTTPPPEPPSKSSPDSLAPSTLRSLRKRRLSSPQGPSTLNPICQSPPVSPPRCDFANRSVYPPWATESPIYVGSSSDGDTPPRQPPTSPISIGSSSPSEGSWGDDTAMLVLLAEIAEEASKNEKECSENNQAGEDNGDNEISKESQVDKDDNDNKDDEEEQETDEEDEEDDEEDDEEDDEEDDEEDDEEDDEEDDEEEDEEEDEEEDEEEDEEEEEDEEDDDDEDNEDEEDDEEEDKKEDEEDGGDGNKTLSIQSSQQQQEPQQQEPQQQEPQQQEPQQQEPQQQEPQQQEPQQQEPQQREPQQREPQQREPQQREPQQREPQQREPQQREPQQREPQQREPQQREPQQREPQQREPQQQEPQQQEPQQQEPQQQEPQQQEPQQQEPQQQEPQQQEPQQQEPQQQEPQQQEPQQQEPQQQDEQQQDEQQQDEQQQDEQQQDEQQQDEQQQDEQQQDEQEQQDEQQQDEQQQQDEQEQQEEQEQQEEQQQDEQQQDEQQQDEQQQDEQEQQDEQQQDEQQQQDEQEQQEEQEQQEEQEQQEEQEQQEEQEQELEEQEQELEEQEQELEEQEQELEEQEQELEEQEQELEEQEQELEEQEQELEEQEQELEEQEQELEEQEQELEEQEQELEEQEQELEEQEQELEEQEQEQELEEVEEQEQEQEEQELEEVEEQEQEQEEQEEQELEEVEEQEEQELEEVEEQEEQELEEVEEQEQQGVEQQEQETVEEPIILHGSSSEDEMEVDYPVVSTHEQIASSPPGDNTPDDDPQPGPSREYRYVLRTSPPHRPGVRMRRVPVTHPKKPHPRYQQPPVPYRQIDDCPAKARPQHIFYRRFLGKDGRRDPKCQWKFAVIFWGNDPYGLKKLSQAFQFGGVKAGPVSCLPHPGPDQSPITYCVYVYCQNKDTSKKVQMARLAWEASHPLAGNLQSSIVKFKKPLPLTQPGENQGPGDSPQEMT
Active calls of the source: *; i = inactive; ? = inconclusive; / = not tested or not shown; & = joins results of further samples.

SMILES	B2AR ag	UCH37 DUB inh	E coli growth	Vif A3G	Bfl-1 A1 inh	HNF4A DNA FP	LANA-H2B inh
O=c1cnnc(Nc2cccc(F)c2)[nH]1	4.2	0.8	0.62	9.8%	0.8	0.2	-0.3
COc1cccc(CN(C(=O)Cn2nnc(-c3ccccc3F)n2)C(C(=O)NC(C)(C)C)c2ccncc2)c1 (stereo not given)	-1.3	-0.4	0.669	?	0.0	2.9	-1.6
O=C(Nc1ccc(F)cc1)c1nc[nH]c1C(=O)Nc1ccccc1[N+](=O)[O-]	11.4	2.9	0.688	/	-0.3	-2.0	-3.3
CC(Sc1ncn[nH]1)C(=O)Nc1cc(C(F)(F)F)ccc1Cl (stereo not given)	-0.8	0.9	0.698	-3.1%	-1.9	2.5	2.0
COC(=O)Nc1ccc(S(=O)(=O)N2c3ccccc3CCC2C)cc1 (stereo not given)	-20.7	-0.1	0.679	23.8%	1.2	0.4	-1.4
Cc1cc(OCC(=O)N2CCOCC2)ccc1NC(=O)c1ccccc1C	-3.5	1.2	0.741	0.6%	0.0	-1.1	-0.6
COc1ccc(N2C(N)=C(C#N)C(c3ccsc3)C3=C2CCCC3=O)c(OC)c1 (stereo not given)	-1.4	-0.8	0.685	/	-0.1	-1.2	0.6
COc1cc(C(=S)N2CCOCC2)cc(OC)c1OC(=O)c1cc([N+](=O)[O-])c(C)c([N+](=O)[O-])c1	-4.9	1.5	0.758	21.8%	1.6	-4.5	0.9
CCN(CC(=O)Nc1ccccc1OC)C(=O)c1cc(S(=O)(=O)N2CCCCCC2)ccc1OC	4.5	2.2	0.695	/	-0.3	2.3	-2.0
CCOc1ccc2[nH]cc(C(=O)NCCCN3CCOCC3)c(=O)c2c1	-0.9	-2.5	0.71	/	0.0	4.4	-4.0
CC1(C)C(=O)Nc2ccccc2N1C(=O)CSc1nnc2c(Cl)cc(Cl)cn12	-11.9	3.4	0.728	8.8%	2.2	0.0	0.1
CCN(CC(=O)NCc1ccc(Cl)cc1)C(=O)c1cc(S(=O)(=O)NCc2ccccc2)ccc1C	-8.7	0.4	0.632	2.9%	-1.2	3.9	0.6
CCOc1ccc(C2C(C(=O)c3ccc(C)o3)=C(O)C(=O)N2Cc2cccnc2)cc1 (stereo not given)	5.4	10.0	0.715	/	-0.5	2.2	-3.5
O=C(O)CSc1c2c(nc3cc(C(=O)Nc4cccc(C(F)(F)F)c4)ccc13)CCC2	5.8	6.3	0.688	13.4µM*	1.5	-10.6	2.7
Cc1cc(O)ccc1Nc1nc2ccccc2nc1Nc1ccc(O)cc1C	18.3	7.3	0.72	?	-0.8	10.2	-1.4
C=CCc1c(C)nc2cc(-c3ccccc3)[nH]n2c1=O	1.0	-13.1	0.557	/	-4.0	6.1	-2.6
O=C(C1CCC(CNc2c(N3CCOCC3)c(=O)c2=O)CC1)N1CCN(c2ccccc2)CC1 (stereo not given)	-0.7	5.6	0.693	0.9%	0.4	-0.3	0.4
CCOC(=O)Cc1csc(NC(=O)c2ccc(S(=O)(=O)N3CCOCC3)cc2)n1	-2.2	0.9	0.692	-0.9%	1.5	2.9	-6.5
O=[N+]([O-])c1ccc(S(=O)(=O)CC(CN2CCCCC2)N2CCCCC2)cc1 (stereo not given)	13.5	3.8	0.646	/	0.6	-3.4	-3.2
COC(=O)c1ccc(C(C(=O)NCc2ccccc2)N(Cc2ccco2)C(=O)c2cnccn2)cc1 (stereo not given)	-0.8	4.9	0.692	5.9%&4.2%	-0.2	-0.7	1.2
CCOc1ccc2[nH]c(C)c(CN3CCCCCC3)c(=O)c2c1	1.3	-84.1	0.608	-9.7%	-0.4	0.6	-2.0
CCc1cccc(N(CC(=O)NCc2ccc(F)cc2)C(=O)c2csnn2)c1	0.6	6.9	0.699	4.8%	3.8	-0.7	-1.5
O=C(CN1C(=O)c2cccc3cccc(c23)C1=O)NCCCO	3.7	-229.5	0.707	0.6%	-0.2	-2.9	2.6
COc1ccc(C2=NOC(CNC(=O)c3ccccc3Br)C2)c(OC)c1 (stereo not given)	-3.1	5.3	0.66	1.4%	0.2	-1.9	-6.1
Cc1cc(C(=O)OCC(=O)Nc2ccc(F)cc2F)c(C)o1	-1.5	-0.3	0.738	-0.8%	-0.5	6.4	0.3
COc1ccc(C(=O)Nc2ncc3c(n2)-c2ccccc2CC3)cc1	-4.3	-1.8	0.691	-6.6%	0.0	-1.5	1.8
CN(C)CCCN1C(=O)c2oc3ccc(Cl)cc3c(=O)c2C1c1cccnc1 (stereo not given)	0.3	-2.2	0.763	10.4%	0.8	-1.4	-1.9
COCCOC(=O)c1c(C)n(C)c2ccc(OC(=O)c3ccccc3OC)cc12	-5.3	4.9	0.639	-6.7%	-0.2	-0.1	1.8
O=[N+]([O-])c1cc2cccnc2c2ncccc12	/	2.4	0.588	-1.4%	0.2	3.3	6.1
O=C(c1ccc2c(c1)N(Cc1ccc(F)cc1)C(=O)CS2)N1CCOCC1	6.9	1.6	0.706	2.5%	0.2	0.7	-5.7
CCOC(=O)NN1C(=O)c2ccccc2NC1(C)C	-9.3	i	0.619	/	0.4	-2.4	0.3
Cc1ncc(S(=O)(=O)c2ccccc2)c(-c2ccccc2Cl)n1	-3.2	-0.4	0.742	?	1.0	-1.4	9.1
CC(C)N1CC(C(=O)Nc2ccc(Cl)c([N+](=O)[O-])c2)CC1=O (stereo not given)	3.0	7.5	0.684	/	0.1	0.5	-1.7
O=c1c2cn(Cc3ccc(F)cc3)c3ccc(F)cc3c-2nn1Cc1ccc(F)cc1	1.6	1.9	0.689	-3.4%	/	-2.5	/
CCOc1ccc(/C(O)=C2/C(=O)C(=O)N(CCOCCO)C2c2ccccc2)cc1 (stereo not given)	-3.8	3.6	/	-4.4%	0.4	0.2	-1.2
O=C(CSc1nc(C2CC2)nc2ccccc12)N1CCc2ccccc21	5.6	4.3	0.709	/	/	4.9	/

Two compounds picked at random from those above, as already listed:
SMILES	B2AR ag	UCH37 DUB inh	E coli growth	Vif A3G	Bfl-1 A1 inh	HNF4A DNA FP	LANA-H2B inh
O=C(c1ccc2c(c1)N(Cc1ccc(F)cc1)C(=O)CS2)N1CCOCC1	6.9	1.6	0.706	2.5%	0.2	0.7	-5.7
CC(C)N1CC(C(=O)Nc2ccc(Cl)c([N+](=O)[O-])c2)CC1=O (stereo not given)	3.0	7.5	0.684	/	0.1	0.5	-1.7

The listing continues.
SMILES	B2AR ag	UCH37 DUB inh	E coli growth	Vif A3G	Bfl-1 A1 inh	HNF4A DNA FP	LANA-H2B inh
Cc1nc(C)n(C(Oc2ccc(Cl)cc2Cl)C(=O)C(C)(C)C)n1 (stereo not given)	1.1	7.2	0.635	/	-0.1	4.0	1.2
Cc1cccc(C(C)C)c1NS(=O)(=O)c1cn(C)nc1C	-3.2	3.4	0.677	/	0.0	1.9	-0.2
CC1C(=O)N2CCCc3cc(S(=O)(=O)N4CCN(c5ccc(F)cc5)CC4)cc1c32 (stereo not given)	2.0	-1.2	0.654	/	0.9	-1.4	-0.9
CCC1CCCCN1CC(C)(C)NS(=O)(=O)c1ccccc1 (stereo not given)	-4.0	3.7	0.725	?	-0.1	-2.1	-3.1
O=C(NC(O)C(=O)c1ccccc1)c1ccc(F)cc1 (stereo not given)	2.9	2.8	0.717	/	-0.1	2.1	-0.3
CCOc1ccc(Cn2nnc(C(=O)NCc3ccc(OC)cc3)c2N)cc1	-8.4	2.9	0.777	-4.8%	-0.2	4.4	0.6
O=C(CC(NC(=O)OCc1ccccc1)C(=O)OCc1ccccc1)OCc1ccccc1 (stereo not given)	-4.1	/	/	0.8%	/	-3.8	/
O=C1CCN(N=Nc2cccc(Cl)c2)N1	/	/	/	-4.3%	-0.1	/	4.4
C=CCn1c(=N)n(CC(=O)c2ccccc2)c2ccccc21	-4.3	6.0	0.643	-3.9%	-0.3	-2.1	-3.8
Cc1sc2nc(C3CC3)nc(N3CCN(C(=O)c4ccccc4F)CC3)c2c1C	-0.7	7.0	0.683	/	-0.4	5.4	-1.7
O=S(=O)(CCn1cccc1)CCn1cccc1	13.1	5.0	0.673	11.6%	0.6	0.3	-0.9
O=C(CSC(=S)N1CCOCC1)c1ccccc1	-4.8	4.0	0.649	-10.0%	-5.5	1.5	-2.3
Cn1nc(C(F)(F)F)cc1C(=O)O	4.0	2.7	0.681	-3.2%	-0.3	3.2	-0.4
O=c1oc(-c2ccc(O)c(O)c2)cc2cc(O)cc(O)c12	16.8	-141.8	0.631	/	/	0.7	/
N#Cc1ccc(C2=CC(=O)C[C@H](c3ccc(Cl)cc3)C2)cc1	19.1	1.7	/	/	-1.0	0.6	-2.0
CC(C)(Oc1ccc(Cl)cc1)C(=O)NC1CC1	-0.2	-1.1	0.639	-5.0%	0.2	6.4	-1.1
CCOC(=O)/C=C/C(=O)OCC(=O)Nc1ccc(C)cc1	1.4	0.9	0.647	-3.6%	0.1	1.7	1.0
O=C(/C=C/c1ccccc1)Nc1ccc2c(c1)C(=O)NC2=O	11.4	/	/	8.7%	0.4	-5.8	-2.2
COc1cccc(CNc2nc3nc(C)cc(=O)n3[nH]2)c1	-6.5	1.2	0.694	-4.5%	1.1	4.5	1.1
O=C(c1ccccc1)c1cc2cc(Cl)ccc2[nH]1	-0.5	-0.6	0.672	/	1.3	-2.8	-0.5
COCCCN1C(=O)c2ccc(C(=O)OCC(=O)N3CCN(c4ccccc4)CC3)cc2C1=O	-4.3	0.7	0.604	12.0%	1.9	1.4	0.7
c1ccc(SCCOCCN2CCOCC2)cc1	3.5	3.3	0.631	10.9%	1.1	2.9	3.4
CCOC(=O)N1CCN(S(=O)(=O)c2c(C)nc3sccn3c2=O)CC1	-1.5	3.2	0.703	/	-1.9	-1.7	0.7
Cc1ccc2c(CC(=O)NCc3ccc4c(c3)OCO4)coc2c1	-0.8	2.1	0.749	-3.1%	-0.4	1.2	-1.5
COc1cc(/C=C(\C#N)c2nn(CCO)c(N)c2C#N)cc(OC)c1OC	-1.2	3.5	0.699	-9.0%	-0.7	2.5	3.1
O=C(NCCO)C(F)(F)C(F)(F)C(F)(F)OC(F)(C(=O)NCCO)C(F)(F)F (stereo not given)	6.0	5.0	0.679	-2.1%	-0.4	1.3	-9.3
Cc1ccc(/C=N/Nc2ncnc3nc[nH]c23)cc1	3.0	/	/	2.1%	-6.4	0.5	-2.1
O=C(Nn1cnc2ccccc2c1=O)c1ccccc1	6.3	3.4	0.684	3.9%	-0.5	3.2	-0.5
CS(=O)(=O)NCCNc1ncc(C(F)(F)F)cc1Cl	-10.6	-0.5	0.648	-11.8%	2.0	-0.7	2.4
CC1CN(C(=O)CCC(=O)N2CCOCC2)c2ccccc2O1 (stereo not given)	-16.9	3.4	0.794	/	-0.2	2.7	4.8
COCCN(CCOC)S(=O)(=O)c1ccc(C(=O)Nc2nc(-c3ccccc3)c(C(=O)c3ccccc3)s2)cc1	0.4	2.3	0.711	-10.8%	0.6	0.1	-5.9
COc1ccccc1NC(=O)c1cccs1	3.9	1.3	0.644	?	-0.3	3.5	2.6
Cc1cccc(NS(=O)(=O)c2ccc3[nH]c(=O)cc(C(=O)OC(C)C(=O)Nc4ccc([N+](=O)[O-])cc4)c3c2)c1 (stereo not given)	11.0	1.2	0.657	?	0.2	3.2	-5.7
